# LANA-H2A inh: blockers of LANA interaction with H2A/H2B – biochemical, FP readout, HTS, primary screen. Protein LANA1 (Human herpesvirus 8 type P (isolate GK18)), Q9QR71. cell-free LANA-H2A/H2B peptide, fluorescence polarization. inhibition, % (no concentration beside the values). actives 0.6% (n = 320,000); in the data active = inhibition mostly above about 10%, no sharp cut-off; inactive = mostly below about 6.7%;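 note: stock transfer was 7.5 nL into about 10 µL; 0% = median of vehicle wells and 100% = median of positive control wells; one replicate is shown; the record names a cut of 25% in any replicate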
# Target sequence (Q9QR71 whole entry, looked up): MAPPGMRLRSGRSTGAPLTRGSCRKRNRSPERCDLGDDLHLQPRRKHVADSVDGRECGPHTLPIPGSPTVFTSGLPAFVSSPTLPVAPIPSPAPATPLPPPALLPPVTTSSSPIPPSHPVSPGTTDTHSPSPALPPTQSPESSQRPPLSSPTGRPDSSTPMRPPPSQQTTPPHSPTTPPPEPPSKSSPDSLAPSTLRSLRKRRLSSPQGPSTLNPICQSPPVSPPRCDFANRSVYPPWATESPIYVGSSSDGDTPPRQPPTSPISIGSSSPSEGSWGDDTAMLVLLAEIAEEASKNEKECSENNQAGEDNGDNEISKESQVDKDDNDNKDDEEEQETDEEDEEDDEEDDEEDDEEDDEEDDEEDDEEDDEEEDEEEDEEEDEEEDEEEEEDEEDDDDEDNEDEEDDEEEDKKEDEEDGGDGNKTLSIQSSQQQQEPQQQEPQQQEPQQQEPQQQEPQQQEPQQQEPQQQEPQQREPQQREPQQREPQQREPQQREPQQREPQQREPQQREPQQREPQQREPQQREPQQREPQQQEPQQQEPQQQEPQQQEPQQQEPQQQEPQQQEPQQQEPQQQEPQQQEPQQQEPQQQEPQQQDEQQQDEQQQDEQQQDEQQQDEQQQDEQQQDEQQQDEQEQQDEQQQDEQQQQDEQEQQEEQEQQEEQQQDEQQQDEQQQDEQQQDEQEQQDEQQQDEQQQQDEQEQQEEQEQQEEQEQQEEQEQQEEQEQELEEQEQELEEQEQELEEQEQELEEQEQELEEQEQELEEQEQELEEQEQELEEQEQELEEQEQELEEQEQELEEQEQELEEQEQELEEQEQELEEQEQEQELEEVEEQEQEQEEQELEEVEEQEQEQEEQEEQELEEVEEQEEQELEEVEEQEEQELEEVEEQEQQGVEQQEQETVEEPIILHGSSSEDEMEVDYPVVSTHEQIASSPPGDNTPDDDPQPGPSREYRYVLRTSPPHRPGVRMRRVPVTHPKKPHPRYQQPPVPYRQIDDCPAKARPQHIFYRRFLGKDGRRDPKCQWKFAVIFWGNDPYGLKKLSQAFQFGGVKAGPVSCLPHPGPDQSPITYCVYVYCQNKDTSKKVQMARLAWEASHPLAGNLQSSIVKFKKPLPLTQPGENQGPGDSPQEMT
# T cruzi inh: inhibitors of intracellular T. cruzi growth, primary screen, luminescence, NIH3T3 host cells; inhibition, % (test concentration not listed); T. cruzi beta-gal in NIH3T3, 90 h; AID 1885, 2009; actives 1.4% (n = 300,000);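 active = mean inhibition across valid replicates above about 55%, limit read from the data; inconclusive = mean below that limit but half or more replicates reach it; inactive = mean below it, under half of replicates reach it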;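 note: signal also drops with host cell toxicity which is not excluded here; 0% = plate median of DMSO wells and 100% = zero luminescence signal; higher percent means less beta-gal luminescence so fewer parasites; stock transfer was 50 nL into about 50 µL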
# MLL AF4-AF9 inh: inhibitors of AF4 peptide binding to AF9, primary screen, biochemical, AlphaScreen, biotin-AF4 peptide, FLAG-AF9, single point | Protein AF-9 (Homo sapiens), P42568 | inhibition, % at 10 µM | actives 0.47% (n = 350,000) | AID 651704, 2012;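 active = every replicate reaching a set inhibition limit, whatever the replicate mean, cut at about 25% in these data; inconclusive = mean inhibition reaches that limit but some replicates miss it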;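 note: 0% = plate neutral control median and 100% = total signal loss; the record names both 10 and 1 µM as test concentration; the first replicate is given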
# Vif TR-FRET: inhibitors of Vif binding to APOBEC3G peptide, primary screen, biochemical, TR-FRET, GST-Vif 1-94, biotin-A3G peptide, dose response retest (AID 1117319) | actives 0.57% (n = 260,000) | TR-FRET GST-Vif / biotin-A3G peptide binding; higher % means a stronger effect; test concentration not given here; strong numbers were not always called active | Virion infectivity factor (Human immunodeficiency virus type 1 group M subtype B (isolate … | one-dose inhibition, %; IC50 in µM for titrated hits;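 active = above the screen mean plus three standard deviations and confirmed in dose response; inconclusive = results disagree or hit not tested in dose response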;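 note: Vif residues 1-94 fused to GST binding biotinylated APOBEC3G peptide 110-148; 0% = full assay without inhibitor and 100% = GST in place of GST-Vif; retest series ran down from 100 µM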
# A1 inh: caspase 3/7 activation in MEF A1-2A-BIM cells, primary screen, A1 inhibitor project, cell-based, luminescence, HTS; Caspase-Glo 3/7 luminescence, 3 h; percent of clofoctol response, vehicle zero; actives 0.066% (n = 330,000); caspase activation, % (concentration not given with the values);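 active = over half of replicate activation scores above 10%, or exactly half above 10 with the replicate mean above 10; inconclusive = replicate mean below 10 yet half the replicates above 10; inactive = over half of replicates below 10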;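 note: wells of about 30 µL received 50 nL stock; many hits fall short of the cut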
# Beta cell apopt: inhibitors of cytokine-induced beta cell apoptosis, primary screen, luminescence; INS-1E cytokine-induced death, ATP luminescence, 48 h; percent of positive-control rescue, neutral wells zero; protection from apoptosis, % (concentration not given with the values); actives 0.8% (n = 300,000); AID 435005, 2010;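 active = all replicates at 75% or more, or half of them and the mean; inconclusive = half reach 75% but not the mean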;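 note: 0% = cytokine-treated negative control wells and 100% = positive control rescue; higher means more ATP so stronger rescue from cytokine killing; wells of about 40 µL received 100 nL stock; the first replicate is given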
# Calb FLC: C. albicans growth inhibition with fluconazole, primary screen, CaCi-2 strain, Alamar Blue fluorescence; C. albicans CaCi-2 (fluconazole-resistant clinical isolate) + fluconazole, 48 h; growth inhibition, % (concentration not given with the values); actives 0.57% (n = 300,000);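 active = most replicates above 75%; inconclusive = exactly half above 75%; inactive = most below 75%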;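 note: all wells also contain fluconazole at 8 µg/ml as a sub-toxic cotreatment; 0% = median of DMSO wells and 100% = median of geldanamycin control wells; wells of about 8 µL received 7.5 nL stock; the first replicate is given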
# RanGTP-Imp inh: inhibitors of RanGTP-importin-beta interaction, primary screen, biochemical, FRET, CFP-Ran, YFP-importin-beta, homogeneous; cell-free CFP-Ran/YFP-importin-beta FRET ratio; actives 1.1% (n = 300,000); Ran GTPase (GTP-bound) - importin-beta complex; inhibition, % (concentration not given with the values);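 active = most replicates above 15%; inconclusive = exactly half above 15%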;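 note: 0% = DMSO wells and 100% = Ran loaded with GDP instead of GTP; wells of about 40 µL received 100 nL stock; the first replicate is given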
# The depositor's hits bear a star; ? = inconclusive; / = no result given.
SMILES,LANA-H2A inh,T cruzi inh,MLL AF4-AF9 inh,Vif TR-FRET,A1 inh,Beta cell apopt,Calb FLC,RanGTP-Imp inh
CCCOc1ccc(C2C(C(=O)c3ccc(C)o3)=C(O)C(=O)N2CCN2CCOCC2)cc1OC (stereo not drawn),4.4,4.3,/,5.9%,-0.2,-10.9,-14.8,-1.1
CC(=O)Nc1cc(NC(C)=O)ncn1,1.3,-19.2,0.4,-2.6%,0.5,-11.5,1.1,1.9
CCc1ccc(C(=O)NNC(=O)c2ccc3c(=O)n4c(nc3c2)CCC4)cc1,1.7,-0.6,0.1,/,0.0,1.4,-0.4,0.3
O=C(NC(=S)N1CCCC(C(F)(F)F)C1)c1ccc(F)cc1 (stereo not drawn),3.0,-4.7,1.4,/,0.6,-4.5,7.8,-0.5
O=S(=O)(c1cccc(C(F)(F)F)c1)N1CCN(C(=S)NC2CC2)CC1,-2.9,-1.2,/,?,0.2,-2.6,-15.1,-5.4
Cc1c(CNCCc2ccc(Cl)cc2)c(C(=O)O)c(C)n1-c1ccccc1,/,-5.8,3.6,4.7%,/,/,-5.4,?
CCOC(=O)C1CCN(C(=O)c2cccc(S(=O)(=O)N3CCc4ccccc43)c2)CC1,0.8,/,-11.8,7.0%,-0.4,-1.3,/,/
O=C(CCCN1C(=O)NC2(CCCC2)C1=O)Nc1ccc(F)cc1,1.4,/,-0.5,/,-0.9,-6.8,/,/
CCC1CCCCN1C(=S)NC(=O)c1cc(S(=O)(=O)N2CCOCC2)ccc1C (stereo not drawn),-3.0,0.2,-3.3,12.9%,0.2,-4.4,-2.1,2.9
O=[N+]([O-])c1ccc(Oc2ccc(/C=N/O)cc2)nc1,-0.2,-0.2,1.5,10.7%,2.6,5.6,7.6,?
CN(C(=O)c1ccco1)c1nc(-c2ccc(F)cc2)cs1,-2.8,-7.0,3.4,-7.5%,-1.4,-0.3,-12.3,0.9
Cc1sc2nc(CN3CCOCC3)nc(Cl)c2c1C,3.7,-3.3,-7.2,-0.3%,0.4,-7.9,0.6,5.9
O=C(N/N=C\c1ccc[nH]1)C1COc2ccccc2O1 (stereo not drawn),0.1,-7.4,/,-0.6%,0.8,/,-10.6,-1.0
Cc1cccc(CSc2nc3[nH]ncc3c(=O)[nH]2)c1,-1.8,-20.2,-2.1,-1.7%,-1.3,-4.6,14.3,7.5
COc1ccc(CCNC(=O)C2CC3Cn4c(nc5ccccc54)C3N2C)cc1 (stereo not drawn),-0.3,-2.7,-0.5,0.7%,0.1,-2.3,-5.8,-1.8
CC1(C)CC(=O)c2cc3c(nc2C1)CC(C)(C)CC3=O,0.1,-10.0,/,/,-0.6,-2.1,35.3,-0.7
O=C(OCCN1CCOCC1)C(c1ccccc1)c1ccccc1,0.1,-13.7,/,17.6%,0.1,-7.5,7.1,4.8
Cc1ccc(N(CC(=O)NCCc2ccc(F)cc2)S(=O)(=O)c2ccc(Cl)c([N+](=O)[O-])c2)c(C)c1,-10.2,27.4,-11.0,17.1%,-0.4,7.4,7.8,-3.6
COc1cccc(C2CCCN2Cc2nc(CCC(C)C)no2)c1 (stereo not drawn),-12.0,13.2,3.9,2.7%,-0.3,1.6,5.4,5.7
CCN(CCCNC(=O)c1ccc(N2CCCC2=O)cc1)c1cccc(C)c1,-9.6,8.6,/,6.1%,-1.2,-3.4,0.4,-2.3
CN(C)/C=N/c1ncc(C(=O)c2ccc(Cl)cc2)s1,2.2,8.3,/,-5.4%,0.5,-1.9,-3.3,5.9
CCCCn1c2c(c(=O)n(C)c1=O)C(c1ccc(OC)cc1)N1CCCCCC1=N2 (stereo not drawn),0.9,15.8,/,-11.0%,-0.4,0.4,4.2,2.7
CC(=O)C1=C(C)OC(N)=C(C#N)C1c1cccc2ccccc12 (stereo not drawn),3.6,-1.6,-1.5,4.9%,0.1,-5.1,0.3,-0.2
CSC1=NC(=O)/C(=C\c2cccc3ccccc23)S1,4.7,/,0.8,-1.0%,-0.4,-15.4,-5.3,/
N/C(=N\OC(=O)Cc1ccccc1[N+](=O)[O-])c1cccc(Br)c1,4.6,-1.6,9.3,2.5%,-0.9,-6.5,-7.0,1.0
SMILES,LANA-H2A inh,T cruzi inh,MLL AF4-AF9 inh,Vif TR-FRET,A1 inh,Beta cell apopt,Calb FLC,RanGTP-Imp inh
CC(C)Cc1cc(CNC(=O)C2CCC(=O)N(CCc3cccc(F)c3)C2)on1 (stereo not drawn),2.3,-7.1,0.2,/,-0.4,2.9,3.3,0.0
O=C(c1ccc2c(c1)OCO2)N1CCN(S(=O)(=O)c2ccc(Br)cc2Cl)CC1,3.4,/,0.8,-6.5%,1.0,-5.0,/,/
CCOC(=O)C(=O)N1CCN(c2nc(-c3ccc(Cl)cc3)cs2)CC1,2.1,3.8,1.7,/,-0.2,-12.0,3.6,1.5
CC(=O)c1ccc(NS(=O)(=O)c2c(C)cc(C)cc2C)cc1,18.7*,-5.5,-4.3,/,-0.6,-1.9,-1.9,-1.5
Cc1cc(N2CCOCC2)cc(C)[n+]1[O-],4.8,10.5,/,-2.0%,-0.3,-6.9,-1.5,/
O=C(N/N=C/c1coc2ccccc2c1=O)c1cc(Br)c(O)c(Br)c1,2.3,-8.4,-0.7,/,-0.3,-15.0,9.8,2.5
COc1ccc(NC(=O)/C(C#N)=C/c2ccc(OCc3ccccc3F)cc2)cc1,-1.8,-16.7,/,/,0.0,4.4,-1.1,?
Cc1cc(C2(c3cc(C)c(NC(=O)CN4CCOCC4)c(C)c3)CCCCC2)cc(C)c1NC(=O)CN1CCOCC1,-0.8,8.9,/,6.6%,0.7,5.2,-6.6,-2.9
COc1cccc(/C=C(/C#N)c2ccc(Cl)cc2)c1OCc1cccc(C(=O)O)c1,2.3,12.4,0.4,5.0%,-0.6,0.2,0.4,5.4
CCCCCc1nnc(NS(C)(=O)=O)s1,-1.9,5.7,/,/,0.1,-3.4,-5.4,-3.4
Cc1ccc(NC(=O)c2nc[nH]c2C(=O)NCCCCCNC(=O)OC(C)(C)C)cc1,2.3,/,8.6,/,-1.6,12.0,/,/
Cc1ccc(CN2CC(C(=O)NCCCSc3ccccc3)CC2=O)cc1 (stereo not drawn),-6.7,-21.9,-0.6,/,0.0,-6.3,-8.9,1.0
COc1ccc(CCN(C(=O)c2snc(C(N)=O)c2N)C(C)C(=O)NC2CCCCC2)cc1OC (stereo not drawn),-3.7,-1.4,-7.6,/,-0.7,-3.1,0.4,0.9
Cc1ccc(COc2ccc(Br)cc2/C=N/O)cc1,-3.4,17.0,/,4.4%,0.4,-10.1,-0.8,-3.4
COc1ccc(C(=O)/C=C/C(=O)N(Cc2ccc(F)cc2)C(C(=O)NC2CCCCC2)c2ccncc2)c(O)c1 (stereo not drawn),-4.0,35.1,/,/,0.4,5.7,-5.5,4.4
Cc1ccc(OCC(=O)Oc2c(C)cccc2C)cc1C,1.0,-8.8,1.1,/,0.1,-4.1,4.6,2.4
COc1ccc(NC(=O)COC(=O)C2CC(=O)N(c3ccc(OC(C)C)cc3)C2)cc1 (stereo not drawn),-1.6,-14.8,0.2,/,0.2,6.0,-1.3,-2.3
Cc1c(C(=O)Nc2nc3ccccc3[nH]2)cccc1[N+](=O)[O-],1.2,-29.8,/,/,-2.7,-8.2,-7.9,-4.5
Cc1ccc(C(=O)NNC(=O)c2ccc(-n3cncn3)c([N+](=O)[O-])c2)cc1,-6.2,-3.8,-1.4,-0.2%,0.3,2.4,-1.8,1.0
Cn1c(=O)c2c(nc(N3CCCCC3)n2CCCNC2=NCCCC2)n(C)c1=O,0.4,-15.3,/,1.9%,0.3,-6.2,0.2,0.9
COc1ccc(-c2cc(CNS(=O)(=O)c3ccc(F)cc3)on2)cc1,-0.2,-6.1,-2.2,-8.9%,0.4,-3.4,1.5,-2.4
CC1CCCN(C(=O)c2ccc(Cl)c(S(=O)(=O)N3CCCCCC3)c2)C1 (stereo not drawn),-0.4,/,-3.0,2.4%,0.5,-13.6,/,/
Cc1ccc(N2CCN(CCc3nc4cc(NS(C)(=O)=O)ccc4n3C)CC2)cc1,1.1,-8.0,/,8.3%,-0.4,1.7,?,0.3
CCOC(=O)C1(CCOC)CCN(Cc2cccc(OCc3ccccc3)c2)CC1,2.3,8.3,1.2,/,-1.6,/,-10.5,-0.4
COc1ccc(CCCNC(=O)C2CCC(=O)N(Cc3ccccc3F)C2)cc1 (stereo not drawn),-1.2,-17.0,3.2,-5.3%,1.3,-2.4,-28.5,2.3
C=CCSc1nc(=O)n2ccc(C)cc2n1,-0.4,-21.5,/,2.2%,0.5,-0.5,14.6,11.8
CC(C)CNC(=O)CO/N=C/c1ccccc1Cl,3.9,-5.4,-5.4,/,-0.6,-0.6,-5.8,3.5
Cc1ccc(CN(c2ccc(C(=O)NCc3cccnc3)cc2)S(C)(=O)=O)cc1,-9.8,12.0,/,-0.2%,-1.2,1.2,0.9,0.6
Cc1ccc(OCCOc2ccc(Br)cc2)c([N+](=O)[O-])n1,-1.9,-3.4,-5.0,-1.7%,-0.4,-7.5,-2.4,?
c1ccc(CNc2c3c(nc4ncnn24)CCC3)cc1,6.4,0.2,?,1.2%,0.6,-9.4,4.9,0.2

# Just Vif TR-FRET, Beta cell apopt and MLL AF4-AF9 inh (3 entries from above):
canonical_smiles	Vif TR-FRET	Beta cell apopt	MLL AF4-AF9 inh
Cc1cc(C2(c3cc(C)c(NC(=O)CN4CCOCC4)c(C)c3)CCCCC2)cc(C)c1NC(=O)CN1CCOCC1	6.6%	5.2	/
COc1cccc(/C=C(/C#N)c2ccc(Cl)cc2)c1OCc1cccc(C(=O)O)c1	5.0%	0.2	0.4
CCCCCc1nnc(NS(C)(=O)=O)s1	/	-3.4	/

# Taken from the results shown, three compounds:
SMILES,LANA-H2A inh,T cruzi inh,MLL AF4-AF9 inh,Vif TR-FRET,A1 inh,Beta cell apopt,Calb FLC,RanGTP-Imp inh
CCCOc1ccc(C2C(C(=O)c3ccc(C)o3)=C(O)C(=O)N2CCN2CCOCC2)cc1OC (stereo not drawn),4.4,4.3,/,5.9%,-0.2,-10.9,-14.8,-1.1
CC(=O)Nc1cc(NC(C)=O)ncn1,1.3,-19.2,0.4,-2.6%,0.5,-11.5,1.1,1.9
CCc1ccc(C(=O)NNC(=O)c2ccc3c(=O)n4c(nc3c2)CCC4)cc1,1.7,-0.6,0.1,/,0.0,1.4,-0.4,0.3
